High-throughput results from PubChem.
MITF inh: inhibitors of MITF, primary screen, MITF inhibitor project, cell-based, luminescence | TRPM1 promoter luciferase, 24 h | inhibition, % (concentration not given with the values) | hit rate 0.28% among 37,000 | AID 2240, 2010;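 active = most replicates at 85% or more, or half of them and the mean; inconclusive = half reach 85% but not the mean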;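 also: human melanocyte line stably carrying TRPM1 promoter luciferase reporter; 0% = vehicle wells and 100% = a positive control; the first replicate is given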
YB-1 expr inh: inhibitors of YB-1 gene expression, primary screen, cell-based, fluorescence. delta delta Cp (YB-1 minus CDIP) (no concentration beside the values). hit rate 0.37% among 30,000. AID 434959, 2010. U2OS, qRT-PCR YB-1 vs CDIP delta delta Cp, 16 h; hits give high values; zero = DMSO, each unit about twofold;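 active = delta delta Cp rounded down to an integer at or above 3, about 3 SD of DMSO wells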;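 also: higher means less YB-1 transcript or more CDIP transcript relative to DMSO; stock transfer was 100 nL into about 100 µL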
PD-1 reverse act: activators reversing PD-1 mediated T-cell inhibition, primary screen, luminescence, primary human CD4 T cells, PD-L1 beads. 29,000 tested, under 10 active. activation, % (no concentration beside the values). AID 2316, 2010. CellTiter-Glo 96 h;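 active = replicate mean of 50% or more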;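 also: 0% = median vehicle wells and 100% = positive control; 100 nL library stock added to about 50 µL; numbers are from one replicate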
Hedgehog inh: Hedgehog pathway signaling inhibitors, primary screen, luminescence, Shh-LIGHT2 cells, Gli-luciferase; Shh-LIGHT2 Gli-luciferase reporter, 30 h; inhibition, % (no concentration beside the values); hit rate 2.1% among 22,000;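 active = replicate mean of 65% or more; inconclusive = mean lower but half the replicates past it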;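 also: pathway switched on by Shh-conditioned medium diluted 1 in 25 in low serum; 100 nL library stock added to about 40 µL; 0% = median of neutral wells and 100% = positive control level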
* = called active by the depositor; ? = inconclusive; / = no result given.

SMILES	MITF inh	YB-1 expr inh	PD-1 reverse act	Hedgehog inh
C[C@@H]1CN([C@@H](C)CO)C(=O)c2cc(NS(=O)(=O)c3ccc(F)cc3)ccc2O[C@@H]1CN(C)Cc1ccc(C(=O)O)cc1	0	-0.16	0.6	-43
Cc1nn(CC(=O)Nc2ccc(F)cc2)c(C)c1[N+](=O)[O-]	-10	/	1.4	/
Cc1noc(C)c1NC(=O)Nc1ccc2c(c1)C(=O)N([C@H](C)CO)C[C@H](C)[C@@H](CN(C)S(=O)(=O)c1ccc(Cl)cc1)O2	8	-0.19	1.2	4
Cc1ccc(S(=O)(=O)N(C)C[C@@H]2Oc3ccc(NC(=O)CCCN(C)C)cc3C(=O)N([C@@H](C)CO)C[C@@H]2C)cc1	-3	0.064	-0.2	18
Cc1ccc(-c2nc3cccnc3o2)cc1NC(=O)COc1ccc(C(C)(C)C)cc1	0	/	0.0	/
C[C@H](CO)N1C[C@H](C)[C@H](CN(C)Cc2ccc(C(F)(F)F)cc2)Oc2ccc(NS(=O)(=O)c3ccc(F)cc3)cc2C1=O	-10	0.047	0.2	-32
C[C@@H]1CN([C@H](C)CO)C(=O)c2cc(NC(=O)C3CCCCC3)ccc2O[C@@H]1CN(C)Cc1ccc(C(F)(F)F)cc1	-2	0.13	1.4	-13
COc1ccc(C)cc1NC(=O)CNS(=O)(=O)c1ccccc1	9	/	-0.9	/
Cc1ccc(N(C(C)C(=O)Nc2ccccc2C(=O)N2CCCC2)S(C)(=O)=O)cc1 (stereo not given)	-8	/	1.3	/
COc1ccc(S(=O)(=O)Nc2ccc3c(c2)CC(=O)N([C@@H](C)CO)C[C@H](C)[C@H](CN(C)CC2CCCCC2)O3)cc1	-4	0.27	-0.2	3
Cc1cccc(NC(=O)CSc2nnc(-c3cccs3)n2-c2ccccc2)c1	-1	/	0.8	/
Cc1ccc(S(=O)(=O)NC(C)(C)C(=O)Oc2cc(C)c3c(c2)oc(=O)c2ccccc23)cc1	?	/	-0.4	/
C[C@@H]1CN([C@H](C)CO)C(=O)c2cccc(NS(=O)(=O)c3ccc(Cl)cc3)c2O[C@@H]1CN(C)S(C)(=O)=O	-4	-0.64	3.3	-19
Cc1noc(C)c1S(=O)(=O)Nc1cccc2c1O[C@H](CN(C)Cc1ccc(C(F)(F)F)cc1)[C@H](C)CN([C@H](C)CO)C2=O	-12	0.26	-0.1	23
C[C@H]1CN([C@@H](C)CO)C(=O)Cc2cc(NC(=O)Nc3ccc(F)cc3)ccc2O[C@@H]1CN(C)Cc1ccc(Oc2ccccc2)cc1	9	0.47	1.0	18
C[C@@H]1CN([C@H](C)CO)C(=O)c2cccc(N(C)C)c2O[C@@H]1CN(C)Cc1ccc(Cl)c(Cl)c1	-2	-0.67	-1.7	-13
C[C@@H]1CN([C@@H](C)CO)C(=O)c2cc(NC(=O)C3CC3)ccc2O[C@H]1CN(C)CC1CCCCC1	1	-0.18	-0.2	-19
C[C@@H]1CCCCO[C@@H](CN(C)S(=O)(=O)c2ccc(F)cc2)[C@@H](C)CN([C@H](C)CO)C(=O)c2cc(NC(=O)Nc3ccc(F)cc3)ccc2O1	34	-0.77	/	/
C[C@@H]1CN([C@H](C)CO)C(=O)Cc2cc(NC(=O)CCN3CCOCC3)ccc2O[C@@H]1CN(C)Cc1ccc(C(=O)O)cc1	-17	-0.12	0.6	-32
O=S(=O)(NCCNC/C=C/c1ccc(Br)cc1)c1cccc2cnccc12	26	-0.024	-2.9	81*
C[C@H]1CN([C@@H](C)CO)C(=O)Cc2cc(N(C)C)ccc2O[C@H]1CN(C)S(=O)(=O)c1ccccc1	0	0.45	1.4	-5
COc1ccccc1C1CCN(S(=O)(=O)c2ccccc2Br)CC1	-25	-0.11	0.2	/
COc1ccc(S(=O)(=O)N(C)C[C@H]2Oc3ccc(NS(C)(=O)=O)cc3C(=O)N([C@H](C)CO)C[C@@H]2C)cc1	6	-0.18	1.2	-24
COc1ccc(NC(=O)N(C)C[C@@H]2OCCCC[C@@H](C)Oc3ccc(NS(=O)(=O)c4ccc(Cl)cc4)cc3C(=O)N([C@H](C)CO)C[C@@H]2C)cc1	24	-0.29	-1.0	/
C[C@H](CO)N1C[C@H](C)[C@@H](CN(C)C(=O)Nc2ccc(C(F)(F)F)cc2)Oc2ccc(NC(=O)Nc3ccc(F)cc3)cc2C1=O	16	0.053	-1.7	-18
COc1ccc(NC(=O)N(C)C[C@H]2Oc3c(NS(=O)(=O)c4cn(C)cn4)cccc3C(=O)N([C@H](C)CO)C[C@H]2C)cc1	-7	1	-0.9	-16
CNC[C@@H]1Oc2c(NC(=O)c3nc4ccccc4s3)cccc2C(=O)N([C@H](C)CO)C[C@@H]1C	5	-0.44	0.3	?
COc1ccc(CN(C)C[C@H]2Oc3ccc(NC(=O)c4ccncc4)cc3CC(=O)N([C@@H](C)CO)C[C@@H]2C)cc1	-2	-0.14	/	-16
CC(C)NC(=O)Nc1cccc2c1O[C@H](CN(C)Cc1ccc(C(=O)O)cc1)[C@H](C)CN([C@H](C)CO)C2=O	-7	-0.41	1.4	-24
C[C@@H]1CN([C@@H](C)CO)C(=O)Cc2cc(NC(=O)Nc3ccccc3)ccc2O[C@@H]1CN(C)C(=O)Nc1ccc(F)cc1	-7	-0.19	/	/
CCC1(c2ccccc2)NC(=O)N(C)C1=O (stereo not given)	-1	-0.18	/	-12
COc1ccc(NC(=O)N(C)C[C@@H]2Oc3ccc(NS(C)(=O)=O)cc3CC(=O)N([C@H](C)CO)C[C@@H]2C)cc1	0	0.17	0.8	-15
CC(C)NC(=O)Nc1ccc2c(c1)CC(=O)N([C@H](C)CO)C[C@@H](C)[C@H](CN(C)S(=O)(=O)c1ccc(Cl)cc1)O2	3	0.54	0.7	-10
C[C@H]1CN([C@@H](C)CO)C(=O)Cc2cc(NC(=O)Nc3ccc4c(c3)OCO4)ccc2O[C@H]1CN(C)C(=O)Nc1ccc(C(F)(F)F)cc1	-13	0.3	-0.8	/
C[C@H](CO)N1C[C@H](C)[C@H](CN(C)C(=O)NC2CCCCC2)Oc2c(NC(=O)c3ccncc3)cccc2C1=O	-3	-0.6	2.1	-79
C[C@@H]1CN([C@H](C)CO)C(=O)c2cccc(NC(=O)Nc3ccccc3)c2O[C@H]1CN(C)Cc1ccc(Oc2ccccc2)cc1	11	-0.4	-1.5	-14

Complete entries, looked up by structure.
`COc1ccc(CN(C)C[C@H]2Oc3ccc(NC(=O)c4ccncc4)cc3CC(=O)N([C@@H](C)CO)C[C@@H]2C)cc1` as listed: MITF inh = -2; YB-1 expr inh = -0.14; PD-1 reverse act = /; Hedgehog inh = -16
`C[C@@H]1CN([C@H](C)CO)C(=O)c2cccc(NC(=O)Nc3ccccc3)c2O[C@H]1CN(C)Cc1ccc(Oc2ccccc2)cc1` as listed: MITF inh = 11; YB-1 expr inh = -0.4; PD-1 reverse act = -1.5; Hedgehog inh = -14

(list continues)
SMILES	MITF inh	YB-1 expr inh	PD-1 reverse act	Hedgehog inh
CNC[C@@H]1Oc2c(NS(=O)(=O)c3ccc(Cl)cc3)cccc2C(=O)N([C@@H](C)CO)C[C@H]1C	-6	-0.023	2.9	-37
C[C@@H]1CN([C@H](C)CO)C(=O)c2cccc(NS(=O)(=O)c3ccc(Cl)cc3)c2O[C@@H]1CN(C)S(=O)(=O)c1ccccc1	1	-0.081	/	-9
C[C@@H]1CN([C@H](C)CO)C(=O)c2cc(N(C)C)ccc2O[C@H]1CN(C)Cc1ccc2c(c1)OCO2	2	-0.15	-0.2	-32
CC(C)NC(=O)N(C)C[C@@H]1Oc2c(NS(=O)(=O)c3ccc(Cl)cc3)cccc2C(=O)N([C@@H](C)CO)C[C@@H]1C	4	-0.023	-1.1	2
CS(=O)(=O)N(CC(=O)Nc1cc(Cl)ccc1Oc1ccccc1)C1CCCCC1	-18	/	-0.4	/
C[C@@H]1CCCCO[C@@H](CN(C)C(=O)Nc2ccc(F)cc2)[C@@H](C)CN([C@H](C)CO)C(=O)c2cc(NS(=O)(=O)c3ccccc3)ccc2O1	-13	0.19	-0.3	3
C[C@H]1CN([C@@H](C)CO)C(=O)Cc2cc(NC(=O)CCN3CCOCC3)ccc2O[C@@H]1CN(C)S(=O)(=O)c1cn(C)cn1	0	0.064	0.6	48
C[C@@H]1CCCCO[C@H](CN(C)CC2CCCCC2)[C@@H](C)CN([C@H](C)CO)C(=O)c2cc(NC(=O)Nc3ccc4c(c3)OCO4)ccc2O1	-6	0.12	/	-7
Cc1ccc(S(=O)(=O)N(C)C[C@@H]2Oc3c(NS(C)(=O)=O)cccc3C(=O)N([C@@H](C)CO)C[C@@H]2C)cc1	-6	-0.12	1.2	-4
COc1ccc(S(=O)(=O)Nc2ccc3c(c2)C(=O)N([C@H](C)CO)C[C@H](C)[C@H](CN(C)S(=O)(=O)c2ccccc2)OCCCC[C@@H](C)O3)cc1	16	0.02	/	/
CC(Sc1ncnc2sc3c(c12)CCCC3)C(=O)Nc1ccc(Br)cc1 (stereo not given)	12	/	0.9	/
C[C@H]1CN([C@@H](C)CO)C(=O)Cc2cc(NC(=O)CCN3CCOCC3)ccc2O[C@H]1CN(C)C(=O)Nc1ccccc1	-2	0.063	0.5	/
C[C@H]1CN([C@@H](C)CO)C(=O)Cc2cc(NC(=O)C3CC3)ccc2O[C@H]1CN(C)S(C)(=O)=O	-16	-0.17	-2.6	10
Cc1cc(Cl)ccc1N(CC(=O)Nc1cc(Cl)cc(Cl)c1)S(C)(=O)=O	9	/	-2.5	/
Cc1cc(C)nc(SC(C)C(=O)Nc2cccc3ccccc23)n1 (stereo not given)	26	/	-1.9	/
COc1ccc(CN(C)C[C@@H]2Oc3c(NS(=O)(=O)c4ccc(Cl)cc4)cccc3C(=O)N([C@@H](C)CO)C[C@@H]2C)cc1	3	-0.41	/	11
C[C@@H]1CN([C@H](C)CO)C(=O)c2cccc(NC(=O)C3CC3)c2O[C@H]1CN(C)Cc1ccc(Oc2ccccc2)cc1	29	-0.2	-4.3	1
C[C@@H]1CN([C@@H](C)CO)C(=O)c2cccc(NS(=O)(=O)c3ccc(F)cc3)c2O[C@@H]1CN(C)S(=O)(=O)c1ccccc1	5	-0.41	-1.5	43
C[C@H](CO)N1C[C@H](C)[C@H](CN(C)Cc2ccc(C(=O)Nc3ccccc3N)cc2)Oc2c(NC(=O)Nc3ccc4c(c3)OCO4)cccc2C1=O	7	-1.5	-1.8	/
COc1cccc2c1N(C(C)=O)C1CC(C)CCC1C2(C)C (stereo not given)	0	-0.27	-5.4	48
CC(C)[C@@H]1CC[C@@H](C)C[C@H]1OC(=O)c1ccccc1	-3	-0.56	/	9
O=C(CSc1nc2ccccc2[nH]1)Nc1ccc(Br)cc1F	-6	/	-3.7	/
C[C@H]1CN([C@@H](C)CO)C(=O)c2cc(NC(=O)c3ccncc3)ccc2O[C@H]1CN(C)S(C)(=O)=O	-3	0.037	0.6	-3
C[C@H](CO)N1C[C@H](C)[C@@H](CN(C)C(=O)Nc2ccc(C(F)(F)F)cc2)Oc2c(NC(=O)C3CCOCC3)cccc2C1=O	8	0.07	-0.1	/
C[C@@H]1CN([C@H](C)CO)C(=O)c2cc(NC(=O)Nc3ccc(F)cc3)ccc2O[C@@H]1CN(C)Cc1ccc(C(=O)Nc2ccccc2N)cc1	-7	0.28	-2.9	/
O[C@H]1[C@H]2c3cc4c(cc3CN3CCC(=C[C@@H]1O)[C@H]23)OCO4	62	0.07	-6.2	83*
COc1ccc(CN(C)C[C@@H]2Oc3ccc(NS(=O)(=O)c4ccc(C)cc4)cc3CC(=O)N([C@H](C)CO)C[C@@H]2C)cc1	4	-0.078	/	36
Cc1noc(C)c1S(=O)(=O)Nc1ccc2c(c1)CC(=O)N([C@H](C)CO)C[C@@H](C)[C@H](CN(C)Cc1ccc(C(F)(F)F)cc1)O2	-1	-0.21	/	/
C[C@H](CO)N1C[C@H](C)[C@H](CN(C)S(=O)(=O)c2cn(C)cn2)Oc2c(NC(=O)Nc3cccc4ccccc34)cccc2C1=O	-26	0.28	2.5	-76
OCc1noc(-c2ccc(Cl)c(Cl)c2)n1	-8	-0.045	1.1	-45
C[C@@H]1CN([C@H](C)CO)C(=O)Cc2cc(NC(=O)Nc3ccccc3)ccc2O[C@@H]1CN(C)S(C)(=O)=O	-2	0.092	-0.2	/
O=C(CN1C(=O)C2C3CC(c4ccccc4)C(C3)C2C1=O)Nc1cccc([N+](=O)[O-])c1 (stereo not given)	46	/	-2.9	/
c1ccc(-c2noc(COc3cccc4ccccc34)n2)nc1	-111	/	1.0	/

Some of the compounds tested, so the mix of outcomes need not match the whole.
